KCNQ2 pot: potentiators of rat KCNQ2 potassium channel; Potassium voltage-gated channel subfamily KQT member 2 (Rattus norvegicus), O88943; CHO-K1 KCNQ2, FluxOR thallium flux fluorescence; active compounds read high; B-score at 10 µM; 0.54% of 310,000 active; AID 2239, 2010;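 active = fluorescence ratio B-score at least 3 SD of library B-scores, with initial fluorescence B-score within 3 SD, cut at about 5.3 in these data; same plate scores as AID 2156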;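 note: B-score of peak minus minimum over baseline fluorescence ratio after K+ and Tl+ stimulus; positive B-score means potentiation of KCNQ2 with more thallium influx and brighter signal; only the inactives scoring about 0 or higher are listed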
Target sequence (O88943 whole entry, looked up): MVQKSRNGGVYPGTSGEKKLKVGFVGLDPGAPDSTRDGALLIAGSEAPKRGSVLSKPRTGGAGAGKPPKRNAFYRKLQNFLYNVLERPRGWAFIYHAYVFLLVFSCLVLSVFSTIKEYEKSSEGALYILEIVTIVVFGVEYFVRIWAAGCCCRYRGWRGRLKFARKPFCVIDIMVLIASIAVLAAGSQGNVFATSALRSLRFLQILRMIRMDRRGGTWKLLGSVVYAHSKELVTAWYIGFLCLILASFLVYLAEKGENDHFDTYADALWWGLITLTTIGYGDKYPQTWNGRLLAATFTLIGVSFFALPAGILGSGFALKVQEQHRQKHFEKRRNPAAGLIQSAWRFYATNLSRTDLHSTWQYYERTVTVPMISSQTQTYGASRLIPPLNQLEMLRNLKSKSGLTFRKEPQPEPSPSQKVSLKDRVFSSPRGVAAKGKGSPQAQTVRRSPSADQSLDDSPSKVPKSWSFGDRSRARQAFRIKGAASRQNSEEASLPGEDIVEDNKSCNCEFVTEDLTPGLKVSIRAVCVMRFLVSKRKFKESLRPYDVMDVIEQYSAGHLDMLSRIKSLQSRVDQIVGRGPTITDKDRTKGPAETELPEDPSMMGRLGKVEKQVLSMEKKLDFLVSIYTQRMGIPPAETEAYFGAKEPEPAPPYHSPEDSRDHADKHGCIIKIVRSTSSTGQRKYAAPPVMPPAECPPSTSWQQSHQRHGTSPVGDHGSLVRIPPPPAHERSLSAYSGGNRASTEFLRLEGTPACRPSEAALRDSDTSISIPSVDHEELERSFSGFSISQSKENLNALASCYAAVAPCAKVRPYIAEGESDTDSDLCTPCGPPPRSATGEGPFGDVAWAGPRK
KCNQ2 pot baseline: second read-out of KCNQ2 pot, no call of its own (marks repeat the call); B-score; compound at 10 µM; measured here: initial fluorescence intensity artifact check;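 brightness before thallium and not channel activity; 0 = typical well and far values either way flag optical interference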
Active calls of the source: *. The list is partial; rates above refer to the full screens.

Fields: KCNQ2 pot | KCNQ2 pot baseline
- O=C(N/N=C/c1cccc(OC(=O)c2cccc(Br)c2)c1)c1ccncc1
→ 0.34 | -0.94
- CCOc1ccc(NC(=O)c2ccc(F)cc2F)cc1
→ 0.1 | -1.7
- CCCCCCSc1cccc(-c2nc3ccc(C)cn3c2NC2CCCCC2)c1
→ 0.43 | 1.5
- N#Cc1c(NC(=O)CCCC(=O)O)sc2c1CCCCC2
→ 0.41 | 0.01
- CC(=O)N1CCCc2cc(S(=O)(=O)N(CC(C)C)CC(C)C)ccc21
→ 0.08 | -0.65
- Cc1cccc(C(=O)Nc2ccc(C(=O)N/N=C/c3ccc4c(c3)OCO4)cc2)c1
→ 0.81 | -0.33
- O=C(CN1CC(=O)Nc2ccccc21)Nc1ccc(F)c(F)c1
→ 0.54 | -0.11
- O=C(NC(=S)Nc1ccc2c(c1)OCCO2)c1ccccc1
→ 1.4 | -1.3
- Cc1cccc(C)c1NC(=O)CCCSc1nnc(-c2ccco2)o1
→ 0.31 | -0.21
- CC1(c2ccccc2)NC(=O)N(CC#N)C1=O (stereo not given)
→ 0.14 | 1.5
- Cc1cc(C)cc(N(CCC#N)C(=O)COC(=O)C2=COCCO2)c1
→ 0.02 | -0.11
- Cc1cccc(-c2oc3ccccc3c2-c2ccc3c(c2)OCO3)c1
→ 0.67 | 1.1
- COc1cc(CC(=O)Nc2ccccc2N2CCOCC2)cc(OC)c1OC
→ 0.77 | -0.86
- CC(NC(=O)Cc1cccs1)c1ccccc1 (stereo not given)
→ 0.52 | -1.1
- CCOC(=O)N1CCC(NC(=O)CCc2c(C)nc3ncnn3c2C)CC1
→ 0.24 | 0.24
- COc1ccc(N2C(=O)CC(n3c(CCCCO)nc4ccccc43)C2=O)cc1 (stereo not given)
→ 0.48 | 0.58
- CCC1(C(=O)O)NC(c2cc(OC)ccc2O)C2C(=O)N(Cc3ccccc3)C(=O)C21 (stereo not given)
→ 0.57 | -0.23
- C=CCOc1cccc(C2/C(=C(/O)c3ccc4c(c3)CC(C)O4)C(=O)C(=O)N2CCN2CCOCC2)c1 (stereo not given)
→ 0.05 | 0.18
- O=C(NCc1ccc(F)cc1)c1cccnc1
→ 0.02 | -1.5
- O=C(O)c1ccccc1SCc1nc2ccccn2c1Br
→ 0.76 | -1.1
- COc1cccc(NC(=O)C2CCCN2S(=O)(=O)c2ccc3c(c2)n(C)c(=O)c(=O)n3C)c1 (stereo not given)
→ 1.9 | 0.01
- Cc1ccc(C)c(NC(=O)C2CCCN(c3cnccn3)C2)c1 (stereo not given)
→ 0.49 | -0.58
- Cc1c(C#N)c(=O)c(-[n+]2ccccc2)c([S-])n1-c1ccc(Cl)cc1
→ 0.38 | -0.32
- c1ccc(-n2ncc3c(N4CCCC4)ncnc32)cc1
→ 0.46 | 0.01
- COc1ccc(C(=O)/C=C/c2ccccc2OC)c(OC(=O)c2ccc([N+](=O)[O-])cc2)c1
→ 0.49 | 1.8
- Cc1oc(-c2ccc(Cl)cc2)nc1CN1CCCC(C(=O)N2CCOCC2)C1 (stereo not given)
→ 0.21 | -0.13
- CCOC(=O)C1=C(C)NC(=O)NC1c1ccc(Br)s1 (stereo not given)
→ 1 | 0.54
- O=Cc1ccc(C(=O)OCC(=O)Nc2ccc(F)cc2F)cc1
→ 0.88 | -0.91
- S=c1[nH]nc(Cc2ccccc2)n1-c1cccc2ccccc12
→ 0.39 | 0.63
- C=CCn1c(COc2cccc3cccnc23)nnc1SCC(=O)O
→ 1.3 | -0.07

Reformatted with tabs: 3 of the compounds above
compound	KCNQ2 pot	KCNQ2 pot baseline
CC(NC(=O)Cc1cccs1)c1ccccc1 (stereo not given)	0.52	-1.1
C=CCn1c(COc2cccc3cccnc23)nnc1SCC(=O)O	1.3	-0.07
O=C(N/N=C/c1cccc(OC(=O)c2cccc(Br)c2)c1)c1ccncc1	0.34	-0.94

New compounds follow.
Fields: KCNQ2 pot | KCNQ2 pot baseline
- O=C(CCc1nnc(-c2ccc(-c3ccccc3)cc2)o1)N1CCCCC1
→ 0.31 | 0.34
- CCOC(=O)c1ccc(NS(=O)(=O)c2cc(-c3nnnn3C(C)C)ccc2OC)cc1
→ 0.16 | 0.39
- CN(C)C(CNS(=O)(=O)c1ccc2ccccc2c1)c1ccccc1 (stereo not given)
→ 1 | -0.17
- Cc1c(NC(=O)C(C)OC(=O)CCOc2ccccc2)c(=O)n(-c2ccccc2)n1C (stereo not given)
→ 0.53 | -3
- O=C(Nc1nc(N2C(=O)c3ccccc3C2=O)n(-c2ccccc2)n1)c1ccccc1
→ 1.4 | -2.3
- CC1(C)Cc2c(c(N3CCOCC3)nc3sc4c(N5CCOCC5)nnnc4c23)CS1
→ 0.2 | -1.4
- CS/C(=C\[N+](=O)[O-])Nc1ccc(C)cc1
→ 0.51 | -2.1
- CN(C)CCNC(=O)c1cc2cc(Br)ccc2oc1=O
→ 0.27 | -1.5
- CCCn1c(=O)c2ccccc2n2c(SCCOc3ccccc3F)nnc12
→ 0.98 | 1.8
- COc1ccccc1Nc1nc(NCCO)c2ccccc2n1
→ 0.03 | -0.34
- O=[N+]([O-])c1ccccc1S(=O)(=O)Nc1ccc(-c2ccc3nncn3n2)cc1
→ 0.69 | 0.96
- CC1CN(c2ccc(NC(=O)c3ccco3)cc2C(=O)O)CC(C)O1 (stereo not given)
→ 2.1 | 0.94
- Cc1ccc(CNC(=O)C2CCC(CNc3c(N4CCOCC4)c(=O)c3=O)CC2)cc1 (stereo not given)
→ 0.22 | 0
- COc1ccccc1CNC(=O)CCS(=O)(=O)Cc1ccc(C)cc1
→ 0.01 | -0.68
- CC1(C)C2CCC1(CS(=O)(=O)Nc1ccc(S(=O)(=O)N3CCCC3)cc1)C(=O)C2 (stereo not given)
→ 1.1 | -0.18
- Cc1cc(OCCCC(=O)NNC(=O)c2ccncc2)ccc1Cl
→ 1.1 | -0.85
- Cc1ccccc1NC(=O)CSc1ccc(-c2ccccn2)nn1
→ 0.67 | -0.36
- Brc1cccc(C2CC(c3ccccc3)n3nnnc3N2)c1 (stereo not given)
→ 1.1 | 0.09
- Cn1c(O)c(N=NC(=O)CNC(=O)c2ccco2)c2ccccc21
→ 0.32 | 0.24
- O=C(NCCSCc1ccccc1)c1ccc(F)cc1
→ 0.34 | -1.1
- O=C(CSCc1ccc(Cl)cc1)Nc1ccc(Br)cc1C(=O)O
→ 1.8 | 0.2
- CCOc1ccccc1NC(=O)c1ccc2c(c1)C(=O)N(CC(C)C)C2=O
→ 0.28 | 0.33
- Nc1nc(Nc2ccccc2F)nc(NCc2ccccc2)c1[N+](=O)[O-]
→ 0.71 | -0.61
- CC(CNS(=O)(=O)c1ccccc1)Sc1nncn1C (stereo not given)
→ 0.07 | 0.27
- CCCCC(=O)Nc1ccc(NC(=O)c2cccnc2)cn1
→ 1.9 | 0.17
- O=C(C1CCN(c2nnnn2-c2ccccc2)CC1)N1CCN(c2ccccc2)CC1
→ 0.67 | -0.45
- NC(=O)c1sc2nc(N3CCCCC3)c3c(c2c1N)CCCC3
→ 6.7* | -1.9*
- O=C(N/N=C\c1ccc(Br)o1)C1COc2ccccc2O1 (stereo not given)
→ 1.9 | 0.04
- Cc1ccc(C)c(N2CCN(CC(=O)Nc3ccc4[nH]c(=O)[nH]c4c3)CC2)c1
→ 0.06 | -1.7
- Cc1cc(C)cc(NC(=O)C2CCN(c3nccs3)CC2)c1
→ 0.14 | -1.2

New compounds follow.
Fields: KCNQ2 pot | KCNQ2 pot baseline
- Cn1cc(S(=O)(=O)N2CCCC2)cc1C(=O)NCc1ccc(F)cc1
→ 0.82 | 1.2
- CC(=O)Nc1cccc(NC(=O)CSc2nnnn2C(C)C)c1
→ 0.52 | 0.35
- CCOC(=O)N1CCN(C(=S)Nc2ccc(C)cc2)CC1
→ 0.66 | -0.74
- COCCCNCCOCCOc1ccccc1-c1ccccc1
→ 0.41 | 1.4
- O=C(O)[C@H]1CCCN1C(=O)c1ccccc1N1C(=O)[C@@H]2Cc3c([nH]c4ccccc34)C(c3cccc(Cl)c3)N2C1=O (stereo not given in full)
→ 0.39 | 0.04
- CCCc1nc2nc(C)c(NS(=O)(=O)c3ccc([N+](=O)[O-])cc3)c(=O)n2[nH]1
→ 0.45 | 0.7
- CN(C)S(=O)(=O)c1cccc(C(=O)Nc2cc3c(cc2C(=O)O)OCCCO3)c1
→ 0.69 | 0.02
- COc1ccc(C2(C)NC(=O)N(CC(=O)Nc3ccc(C)cc3Br)C2=O)cc1OC (stereo not given)
→ 0.76 | -0.24
- Cc1cc(NC(=O)C(=O)NCCN2CCN(C(=O)c3cccs3)CC2)ccc1Br
→ 0.6 | 0.52
- O=S1(=O)CC(O)C(NCc2ccco2)C1 (stereo not given)
→ 0.16 | -0.17
- CCOC(=O)C1CCCCN1C(=O)CCn1nnnc1CN1CCOCC1 (stereo not given)
→ 1.7 | 1.3
- CO/N=C/c1c(C(=O)OC)nn(-c2ccccc2)c1Cl
→ 1.1 | 0.68
- CCOc1cccc(C(=O)NC(=S)Nc2cccc(C)c2)c1
→ 0.12 | -0.01
- Cc1cc(Nc2c(C)cccc2C)n2nc(C)nc2n1
→ 0.02 | 0.1
- O=[N+]([O-])c1ccccc1OCC(O)CN1CCN(CC(O)COc2ccccc2[N+](=O)[O-])CC1 (stereo not given)
→ 0.73 | -0.73
- CCN1C(=O)/C(=C2\C=Cc3cc(C)ccc3N2CC)OC1=S
→ 1.5 | -0.71
- CCc1ccc(N2CC(C(=O)Nc3nnc(CC)s3)CC2=O)cc1 (stereo not given)
→ 0.74 | 0.01
- COC(=O)c1cnc(SC)nc1C
→ 1.2 | -0.08
- CCCc1oc2c(c(=O)c1CC)C(=O)CC(C)(C)C2
→ 1.2 | 0.41
- CN1CCN(C(=O)c2ccc(Cl)c(S(=O)(=O)N3CCCCCC3)c2)CC1
→ 0.72 | -1
- COc1cc(NC(=O)CCCNC(=O)Cn2cnc3sc(C)c(C)c3c2=O)cc(OC)c1OC
→ 0.02 | -0.06
- O=C(CCN1C(=O)/C(=C/c2ccccc2Cl)SC1=S)Nc1ccccc1C(=O)O
→ 0.93 | -0.17
- O=C1NC(=Nc2ccc(Cl)cc2)SC1Cc1cc(Cl)ccc1Cl (stereo not given)
→ 0.03 | 0.11
- CCOC(=O)C(=O)Nc1cc([N+](=O)[O-])ccc1C
→ 0.98 | 0
- CCC(C)NC(=O)CN(C)S(=O)(=O)c1ccc2c(c1)c(=O)n(C)c(=O)n2C (stereo not given)
→ 1.6 | 2.9
- Cc1cccc2c1cnn2C(=O)Nc1ccccc1Cl
→ 0.23 | -1.9
- COc1cccc(C2c3c(C)nn(-c4ccc([N+](=O)[O-])cc4)c3N=C3C(=O)Nc4ccccc4N32)c1 (stereo not given)
→ 1.1 | 0.72
- O=S(=O)(Nc1ccccn1)c1ccc(Br)cc1
→ 1 | -0.13
- C(=N\Nc1ccc2ccccc2n1)/c1ccc2c(c1)OCCO2
→ 0.96 | -0.02
- CCOC(=O)/C=C/C(=O)OCC(=O)Nc1cccc(Cl)c1Cl
→ 0.4 | 1.9

Reformatted as labelled records: 2 of the compounds above.
> COC(=O)c1cnc(SC)nc1C
  KCNQ2 pot: 1.2; KCNQ2 pot baseline: -0.08
> C(=N\Nc1ccc2ccccc2n1)/c1ccc2c(c1)OCCO2
  KCNQ2 pot: 0.96; KCNQ2 pot baseline: -0.02

The results go on.
Fields: KCNQ2 pot | KCNQ2 pot baseline
- CCC(C(=O)NC1CCCC1)N(Cc1ccco1)C(=O)Cn1nnc(-c2ccc(C)cc2)n1 (stereo not given)
→ 0.5 | -0.01
- Cc1ccc(C(=O)O)cc1NS(=O)(=O)c1ccc2c(c1)oc(=O)n2C
→ 0.03 | -1
- COCCOC(=O)C(C#N)c1nc2ccccc2nc1N1CCCC1 (stereo not given)
→ 0.62 | 1.2
- CCOc1cccc(-c2cc(C(=O)NN)[nH]n2)c1
→ 0.03 | -0.04
- Cc1nc(NC(=O)c2cncc(Br)c2)ccc1Br
→ 1.4 | -0.18
- Cc1ccccc1Cn1cc(NC(=O)c2cc(-c3cccs3)on2)cn1
→ 0.59 | 1.2
- O=S(=O)(c1cccc2ccccc12)N1CCCCC1
→ 0.24 | -0.47
- O=C(COc1cccnc1[N+](=O)[O-])NCCc1ccc(Cl)cc1Cl
→ 0.15 | -0.11
- COc1ccc(CNC(=O)CSc2nnc(C)c(=O)[nH]2)cc1
→ 1.8 | 0.16
- Cc1ccc(-c2cc(C(F)(F)F)n3nc(C(=O)NCCCn4ccnc4)cc3n2)cc1C
→ 0.38 | -1.4
- O=C(CSc1ncn(-c2ccccc2)n1)Nc1nc2ccccc2s1
→ 0.97 | 1.6
- Cc1cccc(NC(=O)CN(C)S(=O)(=O)c2cccc3cccnc23)c1C
→ 0.53 | -0.65
- Nc1nc(SCc2ccc([N+](=O)[O-])cc2)c2ncn(C3OC(CO)C(O)C3O)c2n1 (stereo not given)
→ 0.64 | -0.59
- CCOC(=O)c1c(NC(=O)c2cccnc2Cl)sc(C(=O)N(C)C)c1C
→ 0.17 | 0.36
- O=C(CN(Cc1ccco1)C(=O)CNS(=O)(=O)c1ccccc1)NC1CCCCC1
→ 2.2 | -3
- Cc1oc2cc(Br)c(O)c(Br)c2c1C(=O)c1ccccc1
→ 0.74 | -0.58
- COc1ccccc1NC(=O)CCS(=O)(=O)c1ccc2c(c1)oc(=O)n2C
→ 0.42 | -0.63
- CCOc1cc(CNC(=O)CN2C(=O)c3ccccc3S2(=O)=O)ccc1OC
→ 0.89 | -0.26
- NS(=O)(=O)c1ccc(CCNC(=O)C2CCN(S(=O)(=O)c3ccc(Br)s3)CC2)cc1
→ 0.99 | -0.29
- CN(C)CCn1c(=O)n(C2CCCCC2)c(=O)c2c3c(sc21)CCCCC3
→ 0.4 | -1.6
- COc1ccc(C2=NN(c3ccccc3)C(=O)/C2=C\c2ccc(O)c(OC)c2)cc1
→ 0.76 | 0.91
- O=C1CC(=O)C(n2cncn2)C(c2c(F)cccc2Cl)C1 (stereo not given)
→ 0.62 | 0.45
- COc1cc(OC)c(OC)cc1CNC(=O)c1cc(=O)[nH]c2ccccc12
→ 1.5 | 1.5

Bioassay records (PubChem BioAssay)
